# Screens as filed in PubChem.
# FLuc stim CS = affects firefly luciferase, flagging false hits in luciferase stimulation screens | ATPlite luciferase biochemical, luminescence, 10 min; 0 = ATP-free wells, 1 = DMSO control | activation factor at 10 µM | 200,000 tested, under 10 active;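 active means luciferase activation factor, scaled between plate controls, of at least 2 with compound at 10 µM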
# Target sequence (P08659 whole entry, looked up): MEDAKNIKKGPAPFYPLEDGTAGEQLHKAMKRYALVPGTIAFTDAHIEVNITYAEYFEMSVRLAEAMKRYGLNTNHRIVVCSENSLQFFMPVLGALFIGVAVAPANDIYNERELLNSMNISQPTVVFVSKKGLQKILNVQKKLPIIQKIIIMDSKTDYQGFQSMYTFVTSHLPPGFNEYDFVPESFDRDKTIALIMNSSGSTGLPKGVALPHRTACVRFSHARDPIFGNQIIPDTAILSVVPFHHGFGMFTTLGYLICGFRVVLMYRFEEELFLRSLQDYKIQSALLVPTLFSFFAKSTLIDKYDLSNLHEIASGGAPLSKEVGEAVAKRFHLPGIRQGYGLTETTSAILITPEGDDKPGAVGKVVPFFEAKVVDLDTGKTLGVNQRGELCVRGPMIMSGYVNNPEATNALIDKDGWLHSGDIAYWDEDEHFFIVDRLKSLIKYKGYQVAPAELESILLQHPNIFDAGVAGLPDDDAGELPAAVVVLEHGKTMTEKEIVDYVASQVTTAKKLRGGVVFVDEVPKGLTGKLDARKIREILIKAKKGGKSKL
#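 Material: luciferase plus luciferin reagent, cell-free. Medium: PBS buffer for ATP. Also added: ATP substrate, dispensed from a 10.24 µM working solution in PBS. Doses: test compounds dosed from 2 mM stocks in 100% DMSO. Incubation: 10 min post-reagent at room temperature. Technique: light output (luminescence). Read-out basis: luminescence gain marking luciferase activators.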
# NF-kB expr up = raises NF-kB expression in human neuronal cells | fold change at 12.5 µM | NF-kB reporter expression; stronger effect = higher value | 190,000 compounds, 1.6% hits | AID 1239; in the data active means fold change above about 3.3
# TNAP inh no acc = blocks human TNAP activity with no phosphate acceptor present. P05186. purified TNAP, CDP-star luminescence, 30 min. inhibition, % at 20 µM. 200,000 compounds, 0.26% hits;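 active means tissue-nonspecific alkaline phosphatase inhibition above about 50% at 20 µM in the single-dose screen, limit read from the data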;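 further: 0% = DMSO negative control and 100% = EDTA positive control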
# Target sequence (P05186 whole entry, looked up): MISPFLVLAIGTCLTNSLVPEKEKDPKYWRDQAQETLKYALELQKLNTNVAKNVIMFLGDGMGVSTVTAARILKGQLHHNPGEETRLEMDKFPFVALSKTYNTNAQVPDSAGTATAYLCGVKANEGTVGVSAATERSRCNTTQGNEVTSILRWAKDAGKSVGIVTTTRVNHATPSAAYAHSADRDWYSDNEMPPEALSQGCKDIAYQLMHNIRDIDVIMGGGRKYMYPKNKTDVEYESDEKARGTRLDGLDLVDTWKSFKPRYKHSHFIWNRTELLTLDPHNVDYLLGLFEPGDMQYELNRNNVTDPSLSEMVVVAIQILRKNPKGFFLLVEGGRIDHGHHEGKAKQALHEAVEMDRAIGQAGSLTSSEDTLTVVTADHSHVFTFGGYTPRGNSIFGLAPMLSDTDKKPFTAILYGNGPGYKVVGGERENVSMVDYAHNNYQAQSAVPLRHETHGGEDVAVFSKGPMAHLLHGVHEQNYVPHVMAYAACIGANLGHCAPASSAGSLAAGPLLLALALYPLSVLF
# bIAP activator = intestinal alkaline phosphatase (bovine) activation; activation factor at 20 µM; purified bovine IAP, CDP-star luminescence, 30 min; stronger effect = higher value; fold of DMSO-control signal, blank-subtracted; 200,000 compounds, 0.17% hits; AID 1016;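 active means activation factor of 2 or more at 20 µM, a signal rise over negative controls twice the positive control's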
# TNAP act hiacc = activators of human TNAP at high phosphate acceptor concentration; P05186; purified TNAP, CDP-star luminescence, 1 M DEA, 30 min; stronger effect = higher value; 0 = EDTA background, 1 = DMSO-only activity; activation factor at 20 µM; 200,000 tested, under 10 active;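 active means activation factor at least 2 at 20 µM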
#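 Control set: EDTA negative control, DMSO positive control / Assay system: human TNAP / Quantity: TNAP 1/800 final / Evaluation: TNAP activation factor scaled between EDTA and DMSO control wells / Measured by: luminescent substrate turnover signal / Compound dosing: one dose, 20 µM / Times: 30 min enzyme reaction at room temperature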
# TNAP inh hiacc = blocks human TNAP under high phosphate acceptor concentration; 200,000 compounds, 0.03% hits; inhibition, % at 20 µM; purified TNAP, CDP-star luminescence, 1 M DEA; AID 1135; P05186;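 active means over 50% inhibition of tissue-nonspecific alkaline phosphatase at 20 µM in the single-dose screen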;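 further: plate controls were DMSO wells for no effect and EDTA-quenched wells as full inhibition for full effect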
# FLuc inhib CS = Photinus pyralis luciferase inhibition counter-screen. P08659. ATPLite firefly luciferase biochemical luminescence, 10 min. inhibition, % at 10 µM. 200,000 compounds, 1.5% hits. AID 1006;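 active means inhibition above about 50% when tested at 10 µM, limit read from the data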
# APP 5'UTR act = activates APP 5'UTR luciferase reporter; SH-SY5Y APP 5'UTR luciferase reporter, luminescence; zero percent = DMSO vehicle wells; activation, % at 2 µM; 190,000 compounds, 1% hits;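 active means activation above a set limit, based on mean plus 3 SD of controls, cut at about 140% in these data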; further: values of inactives mirror those of a sister screen read the other way
# * = called active by the depositor; . = no result given.
SMILES,FLuc stim CS,NF-kB expr up,TNAP inh no acc,bIAP activator,TNAP act hiacc,TNAP inh hiacc,FLuc inhib CS,APP 5'UTR act
O=C1Nc2ccc(F)cc2C12Nc1ccccc1-c1nnc(SCc3ccccc3Cl)nc1O2 (stereo unspecified),1,1.3,6,0.9,1,2,-2,56
COc1ccc2c(c1)[nH]c1c(N3CCN(Cc4ccc5c(c4)OCO5)CC3)ncnc12,1.1,0.35,-33,1.7,1.1,-13,-6,-3
O=C(NCC(c1cccnc1)N1CCOCC1)Nc1ccccc1 (stereo unspecified),1,1.2,-10,1,1,-3,-2,-4
Cc1[nH]c2ccccc2c1C(=O)/C=C/c1ccccc1,0.9,2,2,0.9,1,-2,6,93
COC(=O)Cn1c(=O)c2c(nc(Br)n2Cc2ccccc2Cl)n(C)c1=O,1,1.1,-8,1,1,-3,-5,7
CC(C)N=C(NC#N)SCc1ccc(Br)cc1,1,1.4,-14,0.9,1.1,-6,-5,2
O=C(N/N=C/c1ccncc1)c1nc(-c2ccccc2)n2c1CCCCC2,1,0.98,-2,1.3,1,1,-3,2
CN1CCN(C(=O)C(C(=O)c2ccc(F)cc2)n2ccccc2=O)CC1 (stereo unspecified),1.1,1,3,0.9,1,0,-6,-16
Nc1ccc(Cc2ccc(N)c(C(=O)O)c2)cc1C(=O)O,1.1,0.99,-8,1,1,-2,-6,-13
Cc1cc(N2CCCCC2)nc(NCc2ccccc2)n1,1,0.83,2,1,1.1,-7,-4,-6
Cc1cc(=O)[nH]c(-n2nc(C)cc2C)n1,1.1,0.98,-5,1.1,1,-2,-6,2
Cc1cccc(-n2c(=O)c3c(n4cnnc24)-c2ccccc2CC32CCCCC2)c1,1.1,0.95,8,1,1,-4,-6,-2
COc1cccc(OCC(=O)NC2CCCCC2)c1,1,1.2,6,1,1,-5,-1,14
O=C1Nc2ccccc2C(=O)C1(Cl)Cc1ccccc1 (stereo unspecified),1,1.1,-2,1,1,-4,-5,15
CCN(CC)CC(=O)c1c[nH]c2ccc(OC)cc12,1,0.94,-6,1.1,1,-1,-3,5
COc1ccc(NC(=O)c2c(C(F)(F)F)nn(C)c2SCc2ccccc2)cc1,1,1.2,-3,0.9,1,0,-2,.
COc1cccc(-n2c(C)n[nH]c2=O)c1,1,0.92,-4,1,1,-1,-5,8
COc1ccc(NC(=O)CCC(=O)c2ccc(-c3ccccc3)cc2)cc1,1,1.1,-8,0.9,1,-2,-4,12
O=C(c1ccccc1)c1nn(-c2cccc(Cl)c2)c2nc(-c3ccccc3)cc(=O)n12,1,1.1,9,0.9,1,3,-1,8
Cc1ccccc1NC(=O)CSc1nnc(-c2ccccc2)n1-c1ccccc1,1.1,0.96,-10,1,1,-4,-7,6
O=S(=O)(/N=C(\Sc1ccc(Cl)cc1)c1ccccc1)c1ccccc1,1.1,1.6,-8,0.8,1.1,-6,-7,-3
COc1ccc(C2(C)NC(=O)N(CC(=O)Nc3ccc4c(c3)OCO4)C2=O)cc1OC (stereo unspecified),1,0.91,-9,1,1.1,-6,-1,-8
Cc1cccc(C)c1NC(=O)C(=O)NCc1ccccn1,1.1,0.98,-4,1,1.1,-6,-6,-2
CCOc1ccc(C(=O)NN2C(=O)C3C4C=CC(O4)C3C2=O)cc1 (stereo unspecified),1,1.3,-13,1,1,0,-2,7
Cc1nnc(SCCCn2c(N3CCN(c4ccccc4)CC3)nc3c2c(=O)[nH]c(=O)n3C)s1,1.1,1,-1,1.1,1,-4,-6,13
Cc1ccc(OCC(=O)N/N=C\c2ccco2)c(C)c1,1,1.3,-1,1,1.1,-5,-2,0
CCOC(=O)c1c(C)nc2sc3c(c2c1-c1ccc(OC)cc1)NC(c1ccc(OC)cc1)NC3=O (stereo unspecified),1.1,1,-8,1.1,1.1,-9,-9,-4
O=C(C1CCCCN1S(=O)(=O)c1ccccc1)N1CCCCC1 (stereo unspecified),0.9,1.9,-6,1,1,0,5,-3
COc1ccc(OC2C(=O)N(CCc3ccc(OC)c(OC)c3)C2c2ccc3c(c2)OCO3)cc1 (stereo unspecified),1.1,0.72,-16,1,1,-2,-7,24
CC1C(=NO)C(C)C(c2ccc(N(C)C)cc2)NC1c1ccc(N(C)C)cc1 (stereo unspecified),1,0.82,13,1,1,2,0,4
CC1CCCN(CC(O)COCC2COc3ccccc3O2)C1 (stereo unspecified),1,1.4,-8,0.9,1,-4,-4,-7
CONC(=O)c1cc(OCC(F)(F)F)ccc1OCC(F)(F)F,1,1.1,3,0.9,1,-2,-1,9
Nc1n[nH]c(-c2ccc(Br)cc2)c1Cl,1,1,81*,0.9,1,-3,-4,-1
O=c1cc(N2CCc3ccccc3C2)[nH]c(=O)n1C1CCCCC1,1.1,0.92,-9,1,1,0,-7,6
Cc1ccccc1OCC(O)Cn1c2ccccc2c2ccccc21 (stereo unspecified),1,0.93,-10,0.9,1.1,-6,-5,21
Cc1ccc(NC(=O)c2ccc(CSc3nnc(C)s3)cc2)cc1,0.4,3.9*,-5,0.9,1,0,56*,70
COc1cc(NC(=O)c2c(F)cccc2F)nc(OC)n1,1,1.7,-13,0.9,1.1,-7,2,31
COC(=O)COc1ccc(C2NC(=O)NC(c3ccccc3)=C2C(C)=O)cc1OC (stereo unspecified),1.1,1.1,-13,1,1.1,-7,-7,2
Cc1cc(N2C(=O)C(O)=C(C(=O)c3cccs3)C2c2cccc(O)c2)no1 (stereo unspecified),1,1.2,-1,0.9,1,-3,-2,2
CCCN1CCC(=NNC(=O)c2ccc(Br)o2)CC1,1.1,1.8,12,1,1,-4,-9,34
CCOC(=O)c1cc2c(=O)n3cccc(C)c3nc2n(CCCOC)c1=NC(=O)c1cccnc1,1,0.29,0,0.9,1,1,-4,17
N#CCSc1nc2scc(-c3cccs3)c2c(=O)n1CCc1ccccc1,1.1,0.91,-13,0.8,1,-4,-12,-11
N#CCO/N=C(\c1ccccc1)c1ccncc1,1,1.1,-7,1,1,-4,-2,-13
COC(=O)N1N=C(c2ccccc2)CC1(O)C(F)(F)F (stereo unspecified),1,1.3,0,1,1,-3,5,33
CCOc1ccc(-c2nnc3ccc(SC)nn23)cc1,1.1,1.4,0,1.1,1,-1,-8,11

# Given with bars between the fields: part of the list above
SMILES | FLuc stim CS | NF-kB expr up | TNAP inh no acc | bIAP activator | TNAP act hiacc | TNAP inh hiacc | FLuc inhib CS | APP 5'UTR act
CC1CCCN(CC(O)COCC2COc3ccccc3O2)C1 (stereo unspecified) | 1 | 1.4 | -8 | 0.9 | 1 | -4 | -4 | -7
CONC(=O)c1cc(OCC(F)(F)F)ccc1OCC(F)(F)F | 1 | 1.1 | 3 | 0.9 | 1 | -2 | -1 | 9
Nc1n[nH]c(-c2ccc(Br)cc2)c1Cl | 1 | 1 | 81* | 0.9 | 1 | -3 | -4 | -1
O=c1cc(N2CCc3ccccc3C2)[nH]c(=O)n1C1CCCCC1 | 1.1 | 0.92 | -9 | 1 | 1 | 0 | -7 | 6
Cc1ccccc1OCC(O)Cn1c2ccccc2c2ccccc21 (stereo unspecified) | 1 | 0.93 | -10 | 0.9 | 1.1 | -6 | -5 | 21
Cc1ccc(NC(=O)c2ccc(CSc3nnc(C)s3)cc2)cc1 | 0.4 | 3.9* | -5 | 0.9 | 1 | 0 | 56* | 70
COc1cc(NC(=O)c2c(F)cccc2F)nc(OC)n1 | 1 | 1.7 | -13 | 0.9 | 1.1 | -7 | 2 | 31
COC(=O)COc1ccc(C2NC(=O)NC(c3ccccc3)=C2C(C)=O)cc1OC (stereo unspecified) | 1.1 | 1.1 | -13 | 1 | 1.1 | -7 | -7 | 2
Cc1cc(N2C(=O)C(O)=C(C(=O)c3cccs3)C2c2cccc(O)c2)no1 (stereo unspecified) | 1 | 1.2 | -1 | 0.9 | 1 | -3 | -2 | 2
CCCN1CCC(=NNC(=O)c2ccc(Br)o2)CC1 | 1.1 | 1.8 | 12 | 1 | 1 | -4 | -9 | 34
CCOC(=O)c1cc2c(=O)n3cccc(C)c3nc2n(CCCOC)c1=NC(=O)c1cccnc1 | 1 | 0.29 | 0 | 0.9 | 1 | 1 | -4 | 17

# The listing continues:
SMILES,FLuc stim CS,NF-kB expr up,TNAP inh no acc,bIAP activator,TNAP act hiacc,TNAP inh hiacc,FLuc inhib CS,APP 5'UTR act
CCn1ccc(C(=O)NC2C(=O)N3C(C(=O)O)=C(C)CSC23)n1 (stereo unspecified),1,0.91,-6,1,1,-1,-5,-1
CCCCCCC(=O)Nc1ccc(C(=O)N/N=C/c2cccnc2)cc1,1,0.91,-86,1,1,2,-2,7
Cc1cc(=O)oc(C)c1C(=O)OCC(=O)c1ccc(Cl)cc1,0.9,1.3,2,1,1,-5,14,10
CCCC(=O)Nc1c(-c2cccs2)c(=O)c2ccccc2n1CC,1,1.1,-13,1,1,-4,-2,-3
O=C(O)CCCC(=O)Nc1ccc(Sc2ccc([N+](=O)[O-])cc2)cc1,1,1.3,-11,1.1,1,-2,1,10
Cc1sc(NC(=O)c2ccccc2)c(C(=O)NCCN(C)C)c1C,1.1,1.4,-6,1,1.1,-8,-6,-4
CCOC(=O)c1c(C)nc2sc3c(c2c1-c1ccc(OC)cc1)NC(c1ccccc1)NC3=O (stereo unspecified),1,0.97,-9,1.1,1,-2,1,-8
CCC(=O)Nc1nnc(SCC(=O)c2ccc3c(c2)Cc2ccccc2-3)s1,1,1.1,6,1,1,0,3,14
CCOC(=O)Cc1nnc(NC(=O)CSc2ccc(C)cc2)s1,1.1,0.88,-10,1,1,-5,-7,12
CSc1nc(-c2ccc(C)cc2)nc(C(Cl)Cl)n1,1,0.99,-4,1,1,2,-2,-3
COc1ccc2cc3cc(C(=O)NCCc4ccc(OC)c(OC)c4)oc3nc2c1,1,0.66,-3,1,1.1,-8,-1,-6
N/C(=N\c1nc2c(c(=O)[nH]1)CCC2)Nc1ccccc1C(F)(F)F,1.1,0.95,0,1,1,-4,-7,18
Cc1ccc(C(=O)Nc2nccc(-c3cccs3)n2)cc1,0.8,1.2,-10,0.9,1,-1,24,24
O=C(/C=C/c1ccccc1Cl)NC(=S)Nc1ccccc1C(=O)NC1CCCCC1,0.9,1.1,-9,0.8,1,-2,11,9
CC(=O)Nc1ccc(NC(=O)CSc2nnc(-c3ccco3)n2Cc2ccco2)cc1,1.1,1.1,-13,1,1.1,-7,-5,3
Cc1ccc(/C=N/NC(=O)c2cc3c(ccc4ccccc43)o2)cc1[N+](=O)[O-],1,1.2,-5,0.9,1,2,-1,6
COc1cc(C2C(C#N)=C(N)Oc3cc(O)ccc32)cc(OC)c1OC (stereo unspecified),1,1,-8,0.9,1,-1,-4,-95
CC(C)C(=O)Nc1sc2c(c1-c1nc3ccccc3[nH]1)CCCC2,1.1,1.7,-9,0.9,1,-1,-6,8
O=C(CCSc1ccc(Cl)cc1)N1CCCCCC1,1,2.3,-6,1,1,2,0,38
Cc1ccc(OC(=O)c2cccc(C(=O)Oc3ccc(C)cn3)n2)nc1,1,0.94,-19,1.1,1,-1,-1,9
Cc1ccccc1NC(=O)c1cccc(Cn2cc(Br)c([N+](=O)[O-])n2)c1,1.1,0.84,-12,0.9,1.1,-7,-10,3
CCOC(=O)C1=C(C)N(C)C(=S)NC1c1ccccc1Cl (stereo unspecified),1.1,1.1,-11,0.8,1,-5,-10,1
COc1cc(OC)nc(Oc2ccccc2C(=O)Oc2ccc(Cl)cc2)n1,1.1,1.1,4,0.9,1,-4,-11,0
CCOc1cc(NC(=S)NCC2CCCO2)c(OCC)cc1NC(=O)c1ccccc1C (stereo unspecified),1,1.2,-8,1,1,-3,-4,-16
O=C(NNc1cccc(Cl)n1)Nc1ccc(Cl)cc1,1,1,-12,1,1,-3,-5,2
Cn1c(C(=O)O)c(CC(=O)NCC2COc3ccccc3O2)c2ccccc21 (stereo unspecified),1,1,-2,0.9,1,0,0,5
COc1ccc(C(=O)Nc2ccc(Cl)cc2C(=O)NCCN2CCOCC2)cc1,1,1.3,-6,1,1,-1,-3,0
N#C/C(C(=O)Oc1ccccc1)=C1/Nc2ccccc2-c2ccccc21,1,0.92,-3,0.9,1,1,-4,3

# Not all compounds are listed. The share of hits here may be higher or lower than overall.
